D2 potentiator = human D2 receptor positive allosteric modulation | P14416 | DiscoveRx D2 beta-arrestin cells, luminescence, 90 min; 100% = 57 uM dopamine signal | potentiation, % (test concentration not listed) | actives 0.23% (n = 360,000); active = potentiation of 50% or more; inconclusive = 30% to 50%; inactive = 30% or less;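 further: compound concentration not given in the record; tested on top of an EC20 dose of dopamine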
Target sequence (P14416 whole entry, looked up): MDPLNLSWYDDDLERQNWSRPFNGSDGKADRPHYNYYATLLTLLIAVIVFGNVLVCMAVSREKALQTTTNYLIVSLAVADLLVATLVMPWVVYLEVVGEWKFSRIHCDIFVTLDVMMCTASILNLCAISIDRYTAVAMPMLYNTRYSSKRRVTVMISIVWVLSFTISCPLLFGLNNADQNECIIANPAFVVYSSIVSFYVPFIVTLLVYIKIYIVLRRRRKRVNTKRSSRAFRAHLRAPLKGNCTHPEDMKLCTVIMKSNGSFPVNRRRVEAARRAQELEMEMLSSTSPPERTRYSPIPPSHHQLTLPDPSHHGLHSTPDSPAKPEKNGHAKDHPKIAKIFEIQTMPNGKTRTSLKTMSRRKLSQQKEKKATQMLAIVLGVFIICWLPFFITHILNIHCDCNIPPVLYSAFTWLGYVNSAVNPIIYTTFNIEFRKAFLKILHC
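PathHunter D2 cells, attached overnight at 37 deg C, received compound in DMSO plus dopamine at EC20 (50 nM final) for 90 min at 37 deg C. Beta-arrestin recruitment was read as luminescence after 1 h with detection reagent at ambient temperature.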
Six1-Eya2 blk = inhibitors of human Six1/Eya2 interaction. Q15475+O00167. AlphaScreen GST-Six1/His-Eya2 binding, biochemical; active compounds read low; control for the full effect not named in the record. activity change, % (no concentration beside the values). actives 0.56% (n = 360,000). AID 651725; in the data active = activity change below about -65%; inconclusive = about -30% to -65%; inactive = above about -30%; further: on the % scale 0 is the no-effect control and ±100 the full control effect
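Six1/Eya2 binding was read as AlphaScreen signal after compounds were pinned into GST-Six1 plus His-tagged Eya2 (5X stock 250/500 nM) in pH 8.0 Tris/NaCl/TCEP buffer, beads added, then incubated 1 h, 37 C, dark.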
D2 ag = agonists of human D2 dopamine receptor (beta-arrestin); P14416; DiscoveRx PathHunter D2 beta-arrestin, luminescence, 90 min; 100% = 57 uM dopamine signal; activation, % (test concentration not listed); actives 0.084% (n = 360,000); AID 624465; in the data active = activation above about 40%; inconclusive = about 15% to 40%; inactive = below about 15%; further: compound concentration not given in the record; the text of the record calls up to 30% inactive
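DiscoveRx PathHunter D2 beta-arrestin cells (2,100/well) attached overnight, then compound-stimulated 90 min at 37 C in HBSS/10 mM HEPES/0.1% Tween-20 buffer; beta-galactosidase complementation read by luminescence after 1 h at ambient temperature. Dopamine 57 uM final (EC100) as control.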
CtBP-E1A blk = inhibitors of CtBP/E1A interaction. AlphaScreen GST-E1A/His-CtBP binding, 1536-well; active compounds read low; control for the full effect not named in the record. activity change, % (test concentration not listed). actives 0.49% (n = 340,000). AID 651724; in the data active means activity change below about -65%; inconclusive means about -30% to -65%; inactive means above about -30%; further: on the % scale 0 is the no-effect control and ±100 the full control effect
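AlphaScreen with 125 nM GST-E1A and 125 nM His-CtBP (5X stocks) in Tris pH 8.0, 300 mM NaCl, BSA, Tween 20, TCEP. Compounds preincubated 2 h at 37 deg C, then glutathione donor/nickel acceptor beads added for 1 h at 37 deg C in dark.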
PINK1 modulator = changes PINK1 expression; actives 0.2% (n = 410,000); Potency, µM (titrated, usually from 76.6 µM), for inactives: at the top dose activation (PINK1 increase), actives largely listed as activators; PINK1 immunofluorescence, high-content cytometry, 24 h; active = well fitted activation curve with a large enough effect; inconclusive = small, poorly fitted or top-dose-only effect; inactive = flat fitted curve, though single readings scatter; cell line not stated here;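 further: potency means the concentration at half of the fitted maximal effect; % of control where 0% means no effect; nearly all actives have a fitted effect of over 65% in size; a mitochondrial uncoupler was the plate control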
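Stable cell line treated 24 h with compounds at 5 concentrations (CCCP controls), then fixed and immunostained for PINK1 plus nuclear and cell stains; PINK1 immunofluorescence quantified by laser-scanning microplate cytometry.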
TRPML1 ag = human mucolipin-1 channel agonism | Q9GZU1 | actives 0.12% (n = 410,000) | activation, % (concentration not given with the values) | TRPML1-expressing cells, Ca2+ dye fluorescence, FDSS; host cell line not named in the record; reference of the full effect not given here; in the data active = activation above about 50%; inconclusive = about 30% to 50%; inactive = below about 30%; further: 0% is about no effect; the text of the record puts the active cut at 80%
Target sequence (Q9GZU1 whole entry, looked up): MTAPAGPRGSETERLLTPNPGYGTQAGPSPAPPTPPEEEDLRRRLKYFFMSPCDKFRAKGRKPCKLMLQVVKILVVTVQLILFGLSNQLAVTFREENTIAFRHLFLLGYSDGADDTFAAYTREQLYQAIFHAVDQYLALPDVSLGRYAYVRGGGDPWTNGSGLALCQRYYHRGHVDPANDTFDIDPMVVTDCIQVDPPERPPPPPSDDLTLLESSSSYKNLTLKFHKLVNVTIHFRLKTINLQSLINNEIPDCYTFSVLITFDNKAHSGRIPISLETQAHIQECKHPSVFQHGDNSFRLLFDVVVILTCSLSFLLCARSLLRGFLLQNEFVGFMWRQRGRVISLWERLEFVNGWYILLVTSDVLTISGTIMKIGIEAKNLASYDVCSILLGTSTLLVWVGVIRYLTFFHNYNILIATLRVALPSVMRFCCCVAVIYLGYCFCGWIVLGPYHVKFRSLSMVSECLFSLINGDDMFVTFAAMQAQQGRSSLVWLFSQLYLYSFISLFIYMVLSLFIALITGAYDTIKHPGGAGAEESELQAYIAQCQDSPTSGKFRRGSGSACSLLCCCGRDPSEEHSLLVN
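Agonist activity was taken from a 110 s kinetic Ca2+ dye read on the FDSS after pinning compounds onto TRPML1-DL cells. The cells were seeded at 1,500/well with Tet inducer, incubated about 16 h, then dye-loaded at room temperature.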
* marks the source's active call; other numbers are inactive results; ? = inconclusive; nt = not tested or not shown; & = joins results of further samples; [ ] = dose if it differs, or a comment.

SMILES	D2 potentiator	Six1-Eya2 blk	D2 ag	CtBP-E1A blk	PINK1 modulator	TRPML1 ag
O=C(NC1CCCCC1)C(c1ccc(F)cc1)N(Cc1ccco1)C(=O)c1csnn1 (configuration not stated)	-4	-2	-1.0	0	0.4%	0.5
CCc1ccc(NCc2nc3ccccc3c(=O)[nH]2)cc1	5	-5	-3.0	-9	-2.8%	-0.1
N#CC1=C(Nc2ccccc2)SC=C(c2ccc(Cl)c(Cl)c2)N=C1N1CCOCC1	-8	6	-0.3	-8	2.9%	1.3
Cc1ccc(SC(C)C(=O)NCc2ccncc2)cc1 (configuration not stated)	-18	2	-0.2	6	3.0%	-1.1
COC(=O)c1c(NC(=S)NN2CCOCC2)sc2c1CCCC2	-1	-1	2.0	1	7.8%	1.3
CCOC(=O)N/N=C/c1ccccc1OCc1ccc(Cl)cc1	-31	-5	-0.2	-11	6.5%	2.1
CC(=O)Nc1ccc(NC(=O)COc2ccc(Cl)cc2Cl)cc1	-16	3	-0.9	-3	6.9%	0.2
O=C(CN1CCCCCC1)Nc1ccccc1OC(F)F	-9	4	-4.5	5	1.0%	-0.3
COc1cccc(CNC(=O)CCCNS(=O)(=O)c2cccs2)c1	-4	11	2.0	-9	-1.9%	0.0
COc1ccc2nc(NNC(=O)c3cc(=O)c4ccccc4o3)sc2c1	4	-9	7.3	-12	4.4%	-0.6
CCOc1nc(NCCc2ccc(OC)c(OC)c2)nc(NC(C)(C)CO)n1	-5	-6	-0.6	-17	-0.3%	1.3
CCC(C)NC(=O)Nc1ccc(Br)cc1 (configuration not stated)	-9	-9	-1.3	-7	3.6%	-0.2
Cc1ccc(C(=O)N(CC(=O)NC2CCCCC2)c2ccccc2F)s1	-4	6	-0.1	-8	5.9%	-1.7
Clc1ccccc1OCCCCN1CCCC1	-26	7	-3.2	1	1.9%[38.3 µM]	-0.2
Cn1c(/C=C/c2ccc([N+](=O)[O-])o2)nc2ccccc2c1=O	-3	-9	-1.8	6	7.4%	-0.3
C/C(=N\NC(=O)c1ccc(O)cc1)c1cccc(NC(=O)c2ccc(Cl)cc2)c1	-3	-15	-7.3	5	1.6%	3.1
CCNC(=O)COC(=O)c1ccc(-c2nc3ccccc3s2)s1	-9	9	5.1	-24	-0.4%	1.6
COCCn1c(SCC(=O)NC(=O)NC(C)(C)C)nc2ccccc21	-5	1	2.4	5	4.2%[38.3 µM]	-0.8
O=C(CNc1cc(S(=O)(=O)N2CCCC2)ccc1OCC(F)(F)F)Nc1cccc(C(F)(F)F)c1	-6	6	0.1	2	-0.3%	4.8
CCNc1nc(NCC)nc(C(=O)NN)n1	-9	?	-2.8	?	-2.0%	0.8
O=C(N/N=C/c1ccccn1)c1ccc(Cl)cc1	-24	?	-7.6	?	2.6%	0.5
C[C@@H](C(=O)NCc1ccccc1)[C@H]1C[C@]1(C)[C@H](NC(=O)OCc1ccccc1)c1ccccc1	-11	12	0.3	-16	24%	2.7
Cc1ccc(-c2nnc(-c3ccccc3Br)o2)cc1	-7	13	3.2	-4	4.0%	1.3
Cc1onc(-c2ccccc2)c1CNC(=O)CN1C(=O)c2ccccc2C1=O	-19	-10	-0.1	nt	1.6%	-0.5
Cc1cc(C)c2c(c1)NC(C(=O)O)C1CC=CC21 (configuration not stated)	3	?	4.1	?	0.2%&-1.0%	2.2&0.3
CC(C)CNc1ncnc2c1ncn2[C@H]1CN(Cc2cccs2)C[C@@H](CO)O1	-4	-1	-3.0	11	2.1%	-0.4
CN(C)c1cccc(C(=O)N/N=C/c2ccoc2)c1	-10	-23	-4.1	3	-0.1%	-0.5
CCCCN(C(=O)c1ccc([N+](=O)[O-])s1)c1c(N)n(CCCC)c(=O)[nH]c1=O	12	15	5.9	-11	-0.4%	0.1
Cn1c(SCC(=O)NCC2CCCO2)ncc(C(=O)Nc2ccccc2)c1=O (configuration not stated)	2	-12	-4.2	0	2.5%	0.4
COc1ccc(OC)c(C(c2nnnn2CCc2ccccc2)N2CCC(C(N)=O)CC2)c1 (configuration not stated)	-7	1	-2.5	0	-0.4%	-0.7
CC(C)[C@H](NC(=O)[C@@H]1Cc2c([nH]c3ccccc23)C2c3ccccc3C(=O)N21)C(=O)NCC1CCCO1 (some centres not stated)	-27	-3	-6.1	1	2.7%	nt
c1ccc(-c2nc3c4ccccc4ccn3c2CC2CCCCC2)cc1	nt	-3	nt	0	0.7%	-0.5
O=C(Cn1ccc(=O)[nH]c1=O)NCCO	2	6	-5.4	-10	3.4%	-0.7
CCN1CCN(c2ccc(N3CCN(S(=O)(=O)c4cccc([N+](=O)[O-])c4)CC3)nn2)CC1	2	2	-1.0	5	0.4%	-1.2
CS(=O)(=O)n1c2ccccc2c(=O)n1-c1ccccc1CCl	-4	1	-2.5	5	5.1%	-0.5
O=C(NC1CCCCC1)C1CCN(C(=O)NCc2ccccc2)CC1	-5	-2	2.0	-4	0.3%	0.1
CCn1c(SCC(=O)NNC(=O)c2ccc(OC)cc2)nnc1-c1cccnc1	-4	5	-4.3	-4	0.9%	-1.4
O=C(Cn1[nH]c(=O)c2ccccc2c1=O)OCC(=O)N1CCc2ccccc2C1	-7	-2	-2.6	3	-3.3%	2.9
COc1ccccc1Nc1ncnc2c1c(C)c(C)n2CCO	-6	-7	2.8	-10	0.3%	-0.8
O=C(Cn1c(-c2ccccc2)noc1=O)Nc1ccc(N2CCCCCC2)cc1	16	?	3.4	?	1.8%[38.3 µM]	1.8

As entered above:
Reading of COc1ccc2nc(NNC(=O)c3cc(=O)c4ccccc4o3)sc2c1 in D2 potentiator: 4
Reading of Cn1c(/C=C/c2ccc([N+](=O)[O-])o2)nc2ccccc2c1=O in D2 potentiator: -3
Reading of O=C(NC1CCCCC1)C1CCN(C(=O)NCc2ccccc2)CC1 in D2 ag: 2.0
Reading of CCC(C)NC(=O)Nc1ccc(Br)cc1 (configuration not stated) in CtBP-E1A blk: -7
Reading of COc1cccc(CNC(=O)CCCNS(=O)(=O)c2cccs2)c1 in D2 potentiator: -4

The list continues.
SMILES	D2 potentiator	Six1-Eya2 blk	D2 ag	CtBP-E1A blk	PINK1 modulator	TRPML1 ag
COc1ccc(-n2c(-c3ccc(Cl)cc3Cl)n[nH]c2=S)c(OC)c1	-2	-1	3.7	1	0.9%	1.4
COc1cccc(NC(=O)CSc2nnc(NC(=O)c3ccco3)s2)c1	2	-9	-2.6	-11	-3.7%	0.6
CC(C)CNC(=S)NNC(=O)c1ccc2c(c1)OCO2	-3	1	-3.8	-21	2.0%	0.0
CCCC(C)C(=O)NCc1ccncc1 (configuration not stated)	-5	-2	7.6	5	-2.9%	1.1
CSc1ncccc1C(=O)OCc1ccccc1	-9	31	1.6	16	0.2%	1.3
CCN(CC)S(=O)(=O)c1ccc(NC(=O)c2ccc(N3CCCC3=O)cc2)cc1	-20	7	-0.8	5	5.6%	0.7
O=C(CNS(=O)(=O)c1ccc(Br)s1)NCc1ccccc1	-7	9	-3.3	1	-2.6%	0.7
Cc1ccc(CNCCCn2cnc3c(OCc4ccccc4)ncnc32)o1	-9	6	-0.6	15	0.0%	1.3
CCN(CCn1cccn1)Cc1nc(Cc2cccc(F)c2)no1	3	9	-1.3	-9	-1.3%	-0.3
O=C(COC(=O)C1CC1)NCCNC(=O)COC(=O)C1CC1	-6	-6	-1.5	-1	1.0%	0.1

Single records, from the list above. Order of values: D2 potentiator	Six1-Eya2 blk	D2 ag	CtBP-E1A blk	PINK1 modulator	TRPML1 ag
`CSc1ncccc1C(=O)OCc1ccccc1` reads -9	31	1.6	16	0.2%	1.3
`CC(C)CNC(=S)NNC(=O)c1ccc2c(c1)OCO2` reads -3	1	-3.8	-21	2.0%	0.0
`Cc1ccc(CNCCCn2cnc3c(OCc4ccccc4)ncnc32)o1` reads -9	6	-0.6	15	0.0%	1.3
`COc1ccc(-n2c(-c3ccc(Cl)cc3Cl)n[nH]c2=S)c(OC)c1` reads -2	-1	3.7	1	0.9%	1.4
`CCN(CCn1cccn1)Cc1nc(Cc2cccc(F)c2)no1` reads 3	9	-1.3	-9	-1.3%	-0.3

Going on with the list.
SMILES	D2 potentiator	Six1-Eya2 blk	D2 ag	CtBP-E1A blk	PINK1 modulator	TRPML1 ag
Cc1cccc(NC(=O)CN2CCSc3ccccc32)c1	-2	10	-4.2	0	5.2%	0.2
Cc1cc(C)cc(NC(=O)c2sc3nc4n(c(=O)c3c2C)CCC4)c1	-9	-5	-7.8	-14	2.7%	-1.2
CCN(c1ccccc1)S(=O)(=O)c1ccc(C(=O)Nc2nnc(CSC)o2)cc1	-6	-7	-2.3	nt	-0.7%	0.8
CCN(CC)S(=O)(=O)c1ccc(C(=O)NC2=C(C(=O)OC)SCC2)cc1	6	?	-3.7	?	0.0%[38.3 µM]	0.6
CC(C)n1cc(/C=C2\NC(=O)N(c3cccc(Cl)c3)C2=O)c2ccccc21	-5	-10	-1.8	3	?	-1.0
COc1ccc(S(=O)(=O)n2nc(OC(=O)c3ccc(C)cc3)cc2N)cc1	-11	-19	-4.3	7	-1.6%	0.8
CC[C@]12c3[nH]c4cc(-c5ccco5)ccc4c3CCN1C(=O)[C@@H](CC(=O)NCc1ccco1)C[C@@H]2C(=O)N1CCN(C(=O)C2CC2)CC1	-6	-8	-0.7	-7	1.5%	-0.3
COc1ccccc1CCc1nnc(CCC(=O)NC(C)Cn2nc(C)cc2C)o1 (configuration not stated)	-3	6	-2.1	4	-0.2%	-0.7
O=c1c2ccccc2nc(SCc2cc(F)cc3c2OCOC3)n1Cc1ccco1	-4	0	0.4	9	16%[38.3 µM]	0.1
CC12CCC(C1)C(C)(C)C2NS(=O)(=O)c1ccc(F)cc1 (configuration not stated)	2	5	-2.1	nt	13%	-0.7
CCN(CC)S(=O)(=O)c1ccc(NC(=O)c2cccnc2Cl)c(NC(=O)c2cccnc2Cl)c1	-8	5	0.2	1	-0.8%	0.1
Cc1c(Nc2nc3ccccc3n3cnnc23)cccc1[N+](=O)[O-]	-6	1	-8.4	4	5.4%	nt
Clc1ccc(-c2nc3ccc(Br)cn3c2Cc2cccc(Cl)c2)cc1	-6	1	-5.1	8	1.3%	-0.4
NC(=O)c1sc2nc3c(c(-c4ccc(Cl)cc4)c2c1N)CCCC3	-20	-26	-1.0	?	-1.4%	1.3
Cc1ccc(S(=O)(=O)N2C[C@H]3C(=O)C[C@@H](c4cccc(C)c4)N(S(=O)(=O)c4ccc(C)cc4)[C@H]3C[C@H]2c2ccccc2)cc1	-3	-2	-0.7	0	0.3%	0.4
O=C(NC1CCN(C(=O)N2c3ccccc3Sc3ccccc32)CC1)c1ccccc1Cl	5	-27	2.6	-5	-6.9%[38.3 µM]	3.1
CC(C)c1nc2cc(C(=O)N(C)Cc3ccc(F)cc3)ccc2o1	-8	5	-2.4	5	0.6%	-0.5
N#CC1=C(N)N(c2ccccc2Sc2ccccc2)C(=O)C1	2	-1	-1.9	-11	-0.1%	0.8
O=C(Nc1nnc(-c2ccc(Cl)cc2)o1)c1nc2ccccc2s1	1	11	-3.2	-24	-0.8%	87*
